Rango dissoc inh – qHTS Assay for Inhibitors of RanGTP induced Rango (Ran-regulated importin-beta cargo) - Importin beta complex dissociation; Potency, µM (top dose mostly 46.1 µM), for inactives: at the top dose activity change, negative = inhibition; Biochemical FRET Rango-importin beta, RanGTP-induced dissociation; 0.071% of 340,000 active; AID 540253, 2011; active means falling FRET ratio curve, often poorly fitted, with flat reads before Ran was added; inconclusive means other falling curves, or compound fluorescence or quenching; inactive means flat or rising ratio curve;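 note: potency is the fitted concentration of half-maximal effect; % of control where 0% means no effect; nearly all actives have a fitted effect of over 45% in size; -100% = wells without RanGTP and RCC1; the record marks most hits as doubtful in a second field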
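Two FRET readings bracket the reaction: one 5 min after compound meets Rango–importin beta, another 45 min after RanGTP-RCC1 (0.6 uM Ran, 0.2 uM RCC1, 2 mM GTP) is added. Only the second defines inhibition.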
Rango-impB inh – qHTS Assay for Inhibitors of Rango (Ran-regulated importin-beta cargo) - Importin beta complex formation; 0.031% of 340,000 active; Importin subunit beta-1 (Homo sapiens), Q14974; Potency, µM (titrated, usually from 92.2 µM), without a hit: at the highest dose inhibition of complex formation; Rango CFP/YFP FRET sensor + importin beta, 45 min; active = rising FRET ratio curve, often small or poorly fitted; inconclusive = mostly compound fluorescence or quenching in the first reads; inactive = flat curves in all reads;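 note: potency is the fitted concentration of half-maximal effect; 0% = DMSO wells and 100% = buffer wells lacking importin beta; nearly all actives have a fitted effect of over 15% in size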
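FRET biosensor (snurportin 1 IBB flanked by EYFP and cerulean), 50 nM, with compound 5 min, then 0.125 microM importin beta in PBS, 1 mM DTT, 0.02% Tween-20, 0.1% BSA. CFP/YFP ratio read after 45 min at room temperature; pre-read flags interference.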
GLA inh pH 4.5 – qHTS Assay for Inhibitors of Human alpha-Galactosidase at pH 4.5; Alpha-galactosidase A (Homo sapiens), P06280; purified enzyme, 4-MU-alpha-Gal fluorescence, pH 4.5; activity change, negative = inhibition, % at 105 µM; 230,000 tested, under 10 active; inconclusive = small, poorly fitted or top-dose-only inhibition, or a rising curve; inactive = flat fitted curve, though single readings scatter; no compound was filed as active;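 note: 0% = full activity with enzyme and -100% = basal without enzyme; dose as in the result columns while the protocol names 77 µM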
Target sequence (P06280 whole entry, looked up): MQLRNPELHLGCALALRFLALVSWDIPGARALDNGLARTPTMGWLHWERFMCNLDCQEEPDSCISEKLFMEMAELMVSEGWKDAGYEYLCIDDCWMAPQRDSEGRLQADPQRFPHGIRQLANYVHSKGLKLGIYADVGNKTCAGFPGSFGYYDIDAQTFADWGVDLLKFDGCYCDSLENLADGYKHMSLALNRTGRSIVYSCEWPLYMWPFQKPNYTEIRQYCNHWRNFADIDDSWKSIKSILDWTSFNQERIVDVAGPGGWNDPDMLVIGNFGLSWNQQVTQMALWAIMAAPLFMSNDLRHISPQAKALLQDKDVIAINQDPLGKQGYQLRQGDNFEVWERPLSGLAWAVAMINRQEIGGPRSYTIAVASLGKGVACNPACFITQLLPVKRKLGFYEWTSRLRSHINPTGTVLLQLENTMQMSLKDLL
miR-21 reporter – qHTS Assay for Modulators of miRNAs and/orActivators of miR-21; HeLa miR-21 FLuc reporter, luciferase, 48 h; Potency, µM (doses to about 38.3 µM), without a hit: at the highest dose reporter change, positive = more light; 340,000 tested, under 10 active; AID 2288, 2010; active = well fitted rising curve with a large enough effect; inconclusive = small, poorly fitted or top-dose-only effect; inactive = no such curve, though single readings can be large or run the other way;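 note: % of control where 0% means no effect; miR-21 action dims this reporter so a rising signal means less miR-21 action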
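HeLa cells endogenously expressing miR-21, stably carrying CMV-driven firefly luciferase with a downstream miR-21 binding site, 2000 cells/well. Titrations up to approximately 40 uM, 48 hours; luciferase luminescence read.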
Numbers without * were called inactive; u = inconclusive; x = not tested or not shown. Not all compounds are listed; the hit share may differ from the screen's.

SMILES | Rango dissoc inh | Rango-impB inh | GLA inh pH 4.5 | miR-21 reporter
C=CCN(c1ccccc1)S(=O)(=O)c1cccc2cccnc12 | 9% | 5.4% | 1 | 3%
CC(C)c1cc(N2CCC(=O)NC2=O)cc(C(=O)O)c1O | -5% | -4.2% | 7 | -8%
CCC1CCC2(CC1)NC(=O)N(CC(=O)NCc1ccc(Cl)cc1)C2=O (stereo not given) | 15% | 0.8% | x | x
COc1ccc(CCC(=O)OCC(=O)N2CCN(S(=O)(=O)c3ccc(C)cc3C)CC2)cc1 | -7% | 0.4% | x | x
Cc1noc(C)c1C(=O)OCC(=O)N1CCN(S(=O)(=O)c2ccc3ccccc3c2)CC1 | -6% | 3.8% | 0 | 7%
CC(C)CCNC(=O)C(c1ccc(O)cc1)N(C(=O)C1COc2ccccc2O1)c1cccc(O)c1 (stereo not given) | -3% | -0.5% | 1 | u
C=C(C)/C=N/NC(=S)Nc1ccc(S(=O)(=O)N2CCOCC2)cc1 | 8% | 4.0% | -2 | -4%
Cc1ccc2cccc(S(=O)(=O)N3CCCc4ccccc43)c2n1 | -7% | -2.2% | -3 | 20%
Cc1noc(C)c1COc1ccccc1C(=O)N1CCN(S(=O)(=O)c2ccccc2Br)CC1 | -31% | -0.1% | x | x
Cc1ccc(C)c2[nH]c(=O)c(C(c3nnnn3C3CCCC3)N3CCOCC3)cc12 (stereo not given) | -9% | -5.6% | -20 | -7%
COc1ccc(CNc2ncccn2)cc1OC | -6% | 1.0% | 2 | -2%
COc1cc(OC)cc(-c2c(C#Cc3ccsc3)c3cc(-c4ccc5c(c4)OCCO5)ccc3n2C)c1 | -12% | u | x | x
O=C(N/N=C/c1ccc2c(c1)OCO2)c1cc(-c2ccco2)nc2ccccc12 | 1% | -0.3% | x | x
CC(C)CCNC(=O)CCc1nnc2n(CCCOC(C)C)c(=O)c3ccccc3n12 | 1% | -0.5% | x | -4%
O=C(Nc1ccc2c(c1)CCC2)Nc1ccccc1F | -15% | 3.5% | x | -15%

Profiles, quoted from the list:
`CC(C)c1cc(N2CCC(=O)NC2=O)cc(C(=O)O)c1O` as listed: Rango dissoc inh = -5%; Rango-impB inh = -4.2%; GLA inh pH 4.5 = 7; miR-21 reporter = -8%
`COc1cc(OC)cc(-c2c(C#Cc3ccsc3)c3cc(-c4ccc5c(c4)OCCO5)ccc3n2C)c1` as listed: Rango dissoc inh = -12%; Rango-impB inh = u; GLA inh pH 4.5 = x; miR-21 reporter = x

(list continues)
SMILES | Rango dissoc inh | Rango-impB inh | GLA inh pH 4.5 | miR-21 reporter
[O-][n+]1c2ccccc2c2n1CCCN=C2c1ccc(Cl)cc1 | -11% | 0.3% | x | x
CCCCCC(=O)NC(=S)Nc1ccc2oc(=O)ccc2c1 | 15% | 0.1% | 1 | 3%
CCn1c(SCC(=O)Nc2nc(C)c(C)s2)nnc1-c1cccnc1 | 0% | 9.2% | -10 | 5%
C=CCn1cnc2c(oc3ccccc32)c1=O | 0% | 0.9% | x | -25%
Cn1c(Cc2ccccc2)nnc1SCC(=O)N1CCN(c2ccccc2)CC1 | -7% | u | 3 | 0%
CC1CCCCC1NS(=O)(=O)c1ccc(-n2cnnn2)cc1 (stereo not given) | -15% | 2.2% | -9 | -10%
CN1CCN(CCCNC(=O)c2cc3c(=O)n(C)c4ccccc4c3s2)CC1 | -12% | 0.0% | 1 | -4%
CCOC(=O)[C@@H]1[C@H]2COc3ccccc3[C@@H]2N2C(=O)N(c3ccc(C)cc3)C(=O)[C@]12C | 8% | -5.1% | x | -5%
O=Nc1c(O)n(Cc2c(Cl)cccc2Cl)c2ccccc12 | -1% | 6.5% | 6 | -8%
COc1ccc(C(=O)/C=C/c2ccc(O)cc2)cc1 | u | u | 1 | -37%
Cc1ccc(-n2c(SCC(=O)NCc3ccco3)nnc2-c2cccnc2)cc1 | 19% | -2.6% | -4 | -1%
Cc1cc(OCc2nnc(SC(C)C(=O)O)n2Cc2ccccc2)ccc1Cl (stereo not given) | 17% | -2.0% | 4 | 1%
O=C(O)Cc1sc(-c2ccccc2)nc1-c1cccs1 | 0% | 0.3% | -1 | -15%
Nc1nonc1-n1nnc(C(=O)N/N=C/c2ccc(Br)cc2)c1CN1CCOCC1 | -21% | 5.7% | x | 5%
Cn1c(N)c(C(=O)COC(=O)c2ccccc2C(=O)c2ccccc2)c(=O)n(C)c1=O | -8% | 1.8% | x | x
C/C(=N\N=C1/SC(CC(=O)O)C(=O)N1c1ccccc1)c1ccc(C)cc1 (stereo not given) | -11% | 0.9% | x | -10%
COc1cc(OC)c(C2N(C)c3ccccc3N2C)cc1OC | x | x | 1 | -1%
CCOC(=O)c1cn(CC)c2cc(Cl)c([N+](=O)[O-])cc2c1=O | 6% | 2.9% | -1 | -2%
COc1cccc(NC(=O)CN(C)C(=O)c2ccc(OCC3CCCO3)cc2)c1 (stereo not given) | 45% | u | x | x
O=S1(=O)CCOC[C@H](c2ccccc2)N1Cc1cccc(Cl)c1 | 10% | 3.1% | x | -1%
N#CCCN(C(=O)CSc1ccc2c(c1)OCCO2)c1ccc(F)cc1 | 3% | 5.6% | 1 | -13%
Cc1sc2nc(SCC(=O)NCCOCCO)nc(N)c2c1C | 0% | -2.4% | -29 | -5%
CCOC(=O)C1(Cc2ccccc2C)CCCN(C(=O)c2ccc(CSC)o2)C1 (stereo not given) | -4% | -1.7% | x | 0%
CC(Sc1ncnc2c1cnn2-c1ccccc1)C(=O)Nc1ccc(N2CCOCC2)cc1 (stereo not given) | -6% | -3.5% | x | x
Cc1c(C(c2cc3c(cc2Br)OCO3)c2c(C)n(C)n(-c3ccccc3)c2=O)c(=O)n(-c2ccccc2)n1C | 15% | -0.1% | -5 | 0%
CCCNC(=O)Cn1cccc1C(=O)c1ccccc1 | -13% | -2.5% | -9 | -6%
Cn1nnc2cc(C(=O)N3CCN(c4ccccn4)CC3)ccc21 | 1% | 5.0% | x | -1%
O=C(NCc1ccccc1)C1CC(=O)N(C2CCCCC2)C1 (stereo not given) | 6% | -0.3% | x | -3%
O=C(Oc1ccc2c(c1)OCC2=O)c1ccc(Cl)cc1 | -12% | -0.4% | 1 | 0%
CCc1nc2c(c(=O)c3ccccc3n2C)c(=O)n1CCc1ccc(OC)cc1 | x | x | -6 | 6%

Shown as a markdown table: two of the compounds above
| SMILES | Rango dissoc inh | Rango-impB inh | GLA inh pH 4.5 | miR-21 reporter |
| --- | --- | --- | --- | --- |
| CN1CCN(CCCNC(=O)c2cc3c(=O)n(C)c4ccccc4c3s2)CC1 | -12% | 0.0% | 1 | -4% |
| CCOC(=O)[C@@H]1[C@H]2COc3ccccc3[C@@H]2N2C(=O)N(c3ccc(C)cc3)C(=O)[C@]12C | 8% | -5.1% | x | -5% |

Retrieved by compound from the entries so far (two):
SMILES | Rango dissoc inh | Rango-impB inh | GLA inh pH 4.5 | miR-21 reporter
COc1cc(OC)c(C2N(C)c3ccccc3N2C)cc1OC | x | x | 1 | -1%
O=C(NCc1ccccc1)C1CC(=O)N(C2CCCCC2)C1 (stereo not given) | 6% | -0.3% | x | -3%

Next part.
SMILES | Rango dissoc inh | Rango-impB inh | GLA inh pH 4.5 | miR-21 reporter
O=C1CCN(Cc2ccc(O)cc2)CCN1CCO | 3% | 3.0% | x | 0%
O=C(CN1CCCC1)Nc1c2c(cc3c1CCC3)CCC2 | -3% | 0.0% | 0 | 0%
Clc1ccc2nc(CN3CCCc4ccccc43)cn2c1 | -10% | -0.7% | 3 | -18%
O=C(c1ccc(Cl)c(Cl)c1)N1CCC(=O)N(C(COCc2cccc(Cl)c2)Cc2ccccc2)CC1 (stereo not given) | 17% | u | 2 | 11%
Cn1nc(C(C)(C)C)c([N+](=O)[O-])c1C(=O)NC1CCCCC1 | -13% | u | x | -1%
COCCNC(=O)/C(C#N)=C/c1c(N2CCCCCC2)nc2c(C)cccn2c1=O | u | u | x | -6%
COc1ccc(CNC(=O)C2CCN(S(=O)(=O)c3c(C)n[nH]c3C)CC2)cc1 | 10% | -1.4% | -2 | 0%
O=C(c1ccccc1)c1coc2ccc(O)c(CN3CCOCC3)c12 | -1% | 0.9% | -1 | -6%
CC1CC(C)CN(S(=O)(=O)c2ccc(NC(=S)NC(=O)c3ccccc3)cc2)C1 (stereo not given) | 18% | 0.0% | -8 | -7%
O=C(C[n+]1ccn(-c2ccccc2)c1)c1ccc([N+](=O)[O-])cc1 | -1% | 0.0% | x | 10%
O=[N+]([O-])c1ccc(CSc2nnc(Cc3ccccc3)o2)cc1 | -14% | -2.1% | -14 | -2%
Cc1ccc(NC(=O)CSc2nnc(CNC(=O)c3ccco3)o2)cc1 | 1% | -1.9% | -5 | -5%
Cc1ccc(C2CC(c3ccccc3)=NN2c2ccccc2)o1 (stereo not given) | -2% | u | 10 | -17%
O=[N+]([O-])c1ccc2nc[nH]c2c1 | -11% | 1.6% | x | x
COCCn1c(-c2ccc(OC)cc2)c(-c2ccc(OC)cc2)oc1=O | -4% | 1.3% | x | -11%
COC(=O)c1[nH]c2ccc(Cl)cc2c1NC(=O)CN1CCC(C(N)=O)CC1 | 18% | 0.5% | 3 | -13%
CCC(=O)NC(NC(=S)Nc1ccccc1Br)C(Cl)(Cl)Cl (stereo not given) | 1% | 3.0% | -3 | -3%
COc1ccc(CC2(CO)CCN(CC3=CC[C@H]4C[C@@H]3C4(C)C)CC2)cc1 | 1% | 4.9% | -15 | 0%
Cc1cc2oc(=O)sc2cc1NS(=O)(=O)c1cccc2cccnc12 | 0% | -2.0% | x | -5%
CCCCN(CC(=O)NCc1ccc(Cl)cc1)S(=O)(=O)c1ccc2c(c1)OCCO2 | -19% | -3.1% | -6 | -4%
O=C(N/N=C/C1CCCCC1)c1cc(Cl)ccc1O | -17% | -0.2% | 4 | -20%
c1ccc2[nH]c(CCCCc3nc4ccccc4[nH]3)nc2c1 | -12% | -0.2% | x | -3%
C/C(=N\Nc1ccc(C(F)(F)F)cn1)c1ccc(S(=O)(=O)NCc2ccco2)cc1 | -7% | -0.3% | 15 | 4%
C/C(CC(=O)Nc1ccc(Cl)cn1)=N\NC(=O)Cc1cccs1 | 2% | 2.0% | -4 | -19%
COc1ccc(C(=O)Nc2nc(-c3cccs3)cs2)cc1 | 1% | 5.9% | 4 | 1%
NC(=O)c1ccc(C2SCC(=O)N2Cc2ccccc2)cc1 (stereo not given) | 11% | -3.6% | -8 | -2%
Cc1cc2c(cc1C)CSC(c1ccccc1OC(=O)C(C)C)SC2 | 2% | 1.3% | 1 | 0%

Assay outcomes: PubChem, National Center for Advancing Translational Sciences (NCATS)
